# Bioassay records as filed in PubChem.
# LANA-nucl inh: inhibitors of KSHV LANA binding to nucleosomes; actives 0.3% (n = 51,000); z-score (no concentration beside the values); FITC-LANA1-23 / chicken nucleosome fluorescence polarization; stronger effect = lower value; AID 720717;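 active means both repeat wells score below -2 in polarization z-score versus plate sample wells, excluding overly bright wells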;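 further: 100 nL library stock added to about 30 µL; numbers are from one replicate; some results filed as inactive read as strong as hits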
#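 Assay system: purified chicken nucleosomes with FITC-labelled LANA N-terminal peptide (1-23) / Probe or stimulus: 50 nM FITC-LANA1-23 probe / Compound dosing: pin-transferred compound, 100 nL / Times: compound with peptide–nucleosome mix 10–45 min at room temperature / Technique: fluorescence polarization, 480 nm excitation, 535 nm parallel and perpendicular emission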
# BasE inh: BasE siderophore biosynthesis inhibition. AID 485350. actives 0.1% (n = 84,000). purified BasE, fluorescence polarization binding displacement. inhibition, % (no concentration beside the values);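 active means both replicates above 25% with normal brightness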;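 further: 0% = negative plate control signal and 100% = positive plate control signal; stock transfer was 100 nL into about 30 µL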
# The depositor's hits bear a star; x = no result given; & = joins results of further samples. Some of the compounds tested. The share of hits here may be higher or lower than overall.
# Results follow in this order: BasE inh | LANA-nucl inh
CC1CN(S(=O)(=O)c2cn(C)c(=O)n(C)c2=O)CC(C)O1 (stereo not given)
    0.4 | 0.043
CCCOc1ccc(-c2nn(-c3ccccc3)cc2/C=C(\C#N)C(=O)NCc2ccco2)cc1
    0.5 | x
FC(F)(F)c1nc(NCCc2ccccn2)c2ccccc2n1
    0.1 | x
Cc1ccc2[nH]c(=O)c(CNC3CCCC3)cc2c1
    1.4 | -0.243
Cc1ccc(OC(=O)NC2(C(F)(F)F)Oc3ccccc3O2)cc1
    2.4 | 0.443
CCCN(CCC)C(=O)c1ccc2c(c1)N(Cc1ccccc1)C(=O)CS2=O (stereo not given)
    3.9 | 0.0105
Cc1ccc(-n2cccc2)c(NC(=O)C(c2ccccc2)C2CCCC2)c1 (stereo not given)
    0.9 | x
Cc1ccc(C(CNC(=O)CCc2ccccc2)N2CCN(C)CC2)cc1 (stereo not given)
    0.9 | 0.537
O=C(CCNS(=O)(=O)c1ccc2[nH]c(=O)ccc2c1)NC1CCCc2ccccc21 (stereo not given)
    -2.3 | -0.538
S=c1[nH]nc(CCCc2n[nH]c(=S)o2)o1
    3.6 | x
Cc1cc(C)nc(-n2nc(C)c3c2NC(=O)CC3c2ccccc2)n1 (stereo not given)
    -2.7 | 0.37
COc1cc(C2=C/C(=C3/N=C(c4ccco4)OC3=O)c3ccccc3O2)cc(OC)c1OC
    2.4 | -0.38
O=C(c1cnc2c3ccccc3nn2c1)c1ccccc1O
    6.9 | x
Cc1oc(C(C)(C)C)cc1C(=O)NC1Cc2ccccc2C1
    1.9 | x
CNC(=O)c1ccsc1NC(=O)CN1C(=O)c2ccccc2C1=O
    0.8 | 0.855
COc1ccc(-c2nc(N)ncc2-c2ccc3c(c2)OCCCO3)c(O)c1
    -1.8 | 0.011
Cc1ccc(S(=O)(=O)NCCSc2nncn2-c2ccc(C)c(Cl)c2)cc1
    -11.5 | x
CCn1c(CNC(=O)c2ccco2)nnc1SC(C)C(=O)Nc1nc(C)c(C)s1 (stereo not given)
    0.1 | -0.537
Cc1c(C(=O)N=Nc2c(O)n(CC(=O)O)c3ccccc23)nnn1-c1nonc1N
    -0.6 | 0.481
CC(OC(=O)c1cccs1)C(=O)NCC1CCCO1 (stereo not given)
    0.3 | -0.197

# Nothing new here: 3 of the compounds above.
# Results follow in this order: BasE inh | LANA-nucl inh
CCn1c(CNC(=O)c2ccco2)nnc1SC(C)C(=O)Nc1nc(C)c(C)s1 (stereo not given)
    0.1 | -0.537
Cc1c(C(=O)N=Nc2c(O)n(CC(=O)O)c3ccccc23)nnn1-c1nonc1N
    -0.6 | 0.481
CC(OC(=O)c1cccs1)C(=O)NCC1CCCO1 (stereo not given)
    0.3 | -0.197

# New compounds follow:
# Results follow in this order: BasE inh | LANA-nucl inh
CC1(C)Cc2nc3n[nH]c(N)c3cc2CO1
    -1.6 | 0.022
CCc1ccc(C(=O)NC(CC(C)C)C(=O)O)cc1 (stereo not given)
    3.5 | 0.103
O=C(c1ccccc1)C(Nc1ccccn1)c1ccccc1 (stereo not given)
    0.1 | -0.0175
CN1CCc2c(sc3c2C(=O)NC(c2ccc(OC(=O)c4ccccc4Cl)cc2)N3)C1 (stereo not given)
    -5.1 | x
CC1CCN(C(=O)C23CCC(C)(C(=O)O2)C3(C)C)CC1 (stereo not given)
    -2.0 | 1.63
CC(C)CCNC(=O)c1ccc(CS(=O)c2cccc(Cl)c2)o1 (stereo not given)
    1.4 | -0.293
O=C1CN(CC(=O)Nc2ccc(Cl)cc2)CCN1
    -0.3 | x
COC(=O)c1ccc(CSc2nnc3ccccn23)o1
    -1.4 | x
COc1ccc(C2OC(=O)CC2C(=O)NC2CCCC(C)C2C)cc1OC (stereo not given)
    0.9 | 0.0975
COC(=O)c1ccc(/N=C/c2cc(C)n(C3CCCC3)c2C)s1
    4.9 | x
Cc1ccc(NC(=S)Nc2cccc(C(F)(F)F)c2)cc1NS(C)(=O)=O
    -2.2 | x
CCOC(=O)c1sc(NC(=O)COc2ccc3c(c2)OCO3)nc1C
    -0.2 | -0.19
COC(=O)C1=C(O)/C(=C\c2cc(C)n(-c3ccc(OC)c(Cl)c3)c2C)N=C1C
    2.3 | x
O=C(CC1COc2ccccc2O1)NCc1ccccc1 (stereo not given)
    -1.4 | 0.682
COc1ccc(C(=O)/C=C2\NC(=O)CS2)cc1
    -1.1 | 0.93
CCOC(=O)c1sc(COc2ccc3nonc3c2)nc1C
    -1.0 | x
C/C(=N\NC(=O)Cc1nc2ccccc2n1C)c1ccc(S(=O)(=O)NCCC(=O)O)cc1
    1.4 | x
COC(=O)C(OC(=O)c1ccc(-n2cccn2)cc1)c1ccccc1 (stereo not given)
    0.1 | x
CN(C)CCN1C(=O)C(=O)/C(=C(/O)c2ccc(S(=O)(=O)N(C)C)cc2)C1c1ccccc1 (stereo not given)
    3.6 | 0.549
Cc1ccc2cc(C#N)c(NCCNC(=O)Nc3ccccc3C)nc2c1
    4.2 | 0.106
N#Cc1ccsc1NC(=O)CCS(=O)(=O)c1ccccc1
    -3.5 | -1.27
CC(=O)N1CCC(N(C(=O)Nc2ccc(Cl)cc2)C2CCCCC2)CC1
    0.1 | 0.0155
CCC(=O)N1N=C(c2cccs2)CC1c1cccs1 (stereo not given)
    -2.3 | 1.11
COc1ccc(-c2n[nH]c(=S)n2CCC(=O)NC(C)c2ccccc2)cc1 (stereo not given)
    2.2 | x
COc1ccc(C(=O)OCC(N)=O)cc1S(=O)(=O)N1CCCc2ccccc21
    2.1 | x
CN1C(C(=O)Nc2ccccn2)=C(O)c2sccc2S1(=O)=O
    1.6&0.1 | -1.13&-0.357&0.0645&-0.245
C/C(=N\Nc1nc2sc3c(c2c2ncnn12)CC(C)(C)OC3)C(=O)O
    -0.8 | -0.531
Clc1ccc2nsnc2c1NC1=NCCN1
    x | 0.527
CCOc1ccccc1N=C1NC(=O)CS1
    -8.7 | x
C=CCN1C(=O)C(CC(=O)Nc2ccc(Cl)cc2)SC1=Nc1ccc(O)cc1 (stereo not given)
    -1.4 | 0.286
CN(C)c1ccc(/C=N/N=C/c2ccc(N(C)C)cc2)cc1
    -0.8 | -0.0125
O=C(CCn1cccc1)N(CCN1CCOCC1)Cc1ccco1
    1.6 | -1.76
O=C(Cn1c(=O)n(Cc2ccco2)c(=O)c2sc3ccccc3c21)NC1CCCC1
    -0.7 | -0.34
Cn1c(=O)c2c(nc(SCC(=O)c3ccccc3)n2CCCc2ccccc2)n(C)c1=O
    2.8 | x
CC(C)(C)c1csc(-c2ccc(S(=O)(=O)N3CCOCC3)cc2)n1
    x | -0.171
CCN(CC)c1ncc(C#N)c(N)n1
    x | -0.107
CC12CC3(C)CC(C)(C1)CC(C(=O)O)(C2)C3
    0.8 | x
CCN1CCSC1=Nc1ccc(OC)cc1
    -4.3 | x
O=C(COc1ccccc1)NC1=NCCS1
    4.7 | -0.685
Cc1nn(C(=O)c2cc3sc(Br)cc3[nH]2)c(C)c1C
    1.4 | -0.066
CC(CC1C(C#N)=C(N)SC(N)=C1C#N)c1ccccc1 (stereo not given)
    15.1 | 0.102
N#Cc1nccnc1Oc1cccc(C(F)(F)F)c1
    1.3 | 0.02
CC1CCN(C(=O)Cn2nnc3ccccc3c2=O)CC1
    -2.5 | 2.88
COc1ccc(OC)c(S(=O)(=O)/N=C/N(C)C)c1
    0.1 | x
CN(C)c1ccc(Cc2ccc(N(C)C)cc2)cc1
    1.7 | x
O=C(Cn1nc(-c2ccccc2)oc1=O)OCC(=O)c1ccccc1
    3.0 | x
COc1ccc(CNC(=O)CN2C(=O)CCc3ccccc32)cc1
    0.2 | 0.0015
CC(NC(=O)Nc1c[nH]c2ccccc2c1=O)c1ccncc1 (stereo not given)
    0.8 | 0.288
CNc1cc(C(F)(F)F)nc(-c2ccccn2)n1
    x | -2.08
CC(=O)NS(=O)(=O)c1ccccc1
    1.2 | x

# The list continues:
# Results follow in this order: BasE inh | LANA-nucl inh
Cc1ccc(N/C=C(/C#N)c2ccsc2)cc1
    x | 1.43
CCOC(=O)/C(=N\Nc1ccccc1C(F)(F)F)N1CCOCC1
    4.6 | x
CCN(Cc1cc2cc3c(cc2[nH]c1=O)OCCO3)c1ccc2c(c1)OCCO2
    -0.4 | 1.06
CCCn1cnc2cc(NCc3ccco3)ccc21
    0.9 | 0.194
Oc1cccc(N=Cc2sc(=S)n(C3CCCCC3)c2O)c1
    5.1 | -0.764
Cc1noc(C)c1S(=O)(=O)NCc1ccc2c(c1)OCO2
    2.5 | x
CCCCC[C@H](O)/C=C/[C@@H]1[C@@H](CC(=O)CCCCC(=O)O)[C@@H](O)C[C@H]1O
    2.9 | -1.05
CCCNS(=O)(=O)c1ccc(NC(=O)C2CC(=O)N(c3ccc(OCC)cc3)C2)cc1 (stereo not given)
    1.1 | -0.064
CN(Cc1ccccc1)c1ncnc2sccc12
    -3.2 | x
CC(C)(C)C(=O)NC(=S)N1CCc2ccccc21
    0.8 | -0.482
CCC(Cc1ccccc1)NC(=O)C1CCCN(c2nnc(-n3cccc3)s2)C1 (stereo not given)
    2.4 | -0.0795
COC(CN=CC1=C(O)CC(C)(C)CC1=O)OC
    2.0 | 0.2
COc1ccc(C2C(C(=O)NCc3cccnc3)CCC(=O)N2c2cc(OC)c(OC)c(OC)c2)cc1 (stereo not given)
    -0.8 | -0.322
O=C1c2ccccc2C(=O)c2c1oc1c3c(ccc21)OCN(CCCN1CCOCC1)C3
    3.1 | x
Cc1cc(C)c(S(=O)(=O)N2CCSc3ccccc32)c(C)c1
    -4.0 | x
C/C(=N\NC(N)=S)C1=CC(C)(C)CCC1
    -0.9 | x
Cc1nn(-c2ccccc2)c2c1C(c1ccc(Cl)cc1)N1C(=N2)C(=O)Nc2ccccc21 (stereo not given)
    0.6 | x
O=C(Nc1ccc2c(c1)OCO2)c1cc(-c2ccccc2)oc1C(F)(F)F
    1.5 | 0.607
O=C(Cc1n[nH]c(=O)c2ccccc12)OCc1ccc(F)cc1
    3.3 | x
Cn1nnnc1SCC(=O)N=C1NC(=O)CS1
    -0.7 | -0.239
CNS(=O)(=O)c1cccc(C(=O)NCCCN2CCCC2=O)c1
    1.9 | x
O=S(=O)(c1ccc(Nc2ccc(F)cc2)nc1)N1CCCC1
    2.3 | x
O=C(CSc1nnc(-c2ccc(S(=O)(=O)N3CCOCC3)cc2)o1)c1c[nH]c2ccccc12
    -2.0 | 0.017
CCOC(=O)c1c(-c2cccs2)csc1NC(=O)CSc1nncn1C
    1.8 | x
O=C(CNC(=O)c1ccc(Br)o1)NC1CCCc2ccccc21 (stereo not given)
    1.5 | x
CC(C)(C)OC(=O)N1CCOCCN(C(=O)OC(C)(C)C)CCOCC1
    1.9 | -0.671
CNC(=O)c1cnc2c(c(C)nn2-c2ccccc2)c1Cl
    1.3 | 0.123
O=C(NC(=S)NCc1cccs1)c1cccs1
    6.4 | 0.527
CN(Cc1ccccc1)S(=O)(=O)c1cc2c3c(c1)CCN3C(=O)CC2
    1.4 | -0.951
Cc1ccc(NC(=O)CC2SC(=NC3CCCC3)NC2=O)cc1Cl (stereo not given)
    0.8 | x
CCc1c(C)c2ccc(O)c(CN(C)C)c2oc1=O
    -0.6 | 0.275
S=C(NCc1ccccc1)NC(Cc1ccccc1)c1ccccc1 (stereo not given)
    0.9 | x
CCCCn1c(=O)c2oc3ccccc3c2n(CC(=O)Nc2cccc(OC)c2)c1=O
    1.6 | 0.367
CC(Sc1nc2ccccc2c(=O)n1Cc1ccco1)C(=O)NCc1ccc2c(c1)OCO2 (stereo not given)
    2.3 | x
O=C(Nc1sc2c(c1C(=O)NCc1ccco1)CCC2)c1cccs1
    -1.0 | -0.92
C=CCn1c(SCC(=O)Nc2cc(OC)c(NC(=O)c3ccco3)cc2OC)nnc1-c1ccncc1
    2.4 | 0.629
CCOc1ccc(NC2=NC(C)(C)N=C(N)N2)cc1
    -4.2 | 0.061
CC(C)C(=O)NCCc1ccc(S(N)(=O)=O)cc1
    -0.6 | x
Cc1cc(/C(O)=C2\C(=O)C(=O)N(CCCN(C)C)C2c2ccc(O)cc2)ccc1OCC(C)C (stereo not given)
    2.5 | -0.71
Cc1cc(C)c(OC2CN(C(c3ccccc3)c3ccccc3)C2)c(C)c1
    x | 0.029

# Reformatted with each value named: part of the list above
> CC(Sc1nc2ccccc2c(=O)n1Cc1ccco1)C(=O)NCc1ccc2c(c1)OCO2 (stereo not given)
  BasE inh: 2.3 | LANA-nucl inh: x
> C=CCn1c(SCC(=O)Nc2cc(OC)c(NC(=O)c3ccco3)cc2OC)nnc1-c1ccncc1
  BasE inh: 2.4 | LANA-nucl inh: 0.629

# Next compounds.
# Results follow in this order: BasE inh | LANA-nucl inh
O=C(c1cc(S(=O)(=O)N2CCCC2=O)c(Cl)cc1Cl)N1CCCCC1
    0.4 | 0.99
CCNC(=S)Nc1cc(-c2ccc(Cl)cc2)[nH]n1
    -0.1 | 0.443
COc1ccc(N(C)C(C)=O)cc1
    -0.1 | 0.607
O=c1c2ccccc2c(/C=N/n2cnnc2)c(O)n1-c1ccccc1
    2.7 | x
NC(=O)c1ccc(NC(=O)C#Cc2ccccc2)cc1
    -4.2 | 0.979
COc1cc(C(=O)NC2=C(C#N)CCC2)cc(OC)c1OC
    -8.0 | -0.616
CCCC1C2CC(C)CC=C2C(C#N)=C(N)C1(C#N)C#N (stereo not given)
    1.2 | x
COc1ccc(C(=O)OC2CCCCC2=O)cc1OC (stereo not given)
    2.1 | x
O=C(C1CCCCC1)N(Cc1nc2sc3c(c2c(=O)[nH]1)CCCC3)Cc1cccs1
    0.9 | 0.306

# 3 of the entries above in order of the LANA-nucl inh value, highest first:
mol | LANA-nucl inh
NC(=O)c1ccc(NC(=O)C#Cc2ccccc2)cc1 | 0.979
O=C(C1CCCCC1)N(Cc1nc2sc3c(c2c(=O)[nH]1)CCCC3)Cc1cccs1 | 0.306
COc1cc(C(=O)NC2=C(C#N)CCC2)cc(OC)c1OC | -0.616
